p53 nuclei – nuclear p53 accumulation, HPV+ cells – imaging, p53-positive nuclei imaging, 24 h, 48 h (AID 1508601); p53-positive nuclei imaging, 48 h; active compounds read high; some inactives read as strong as hits; p53-positive nuclei, normalised, % at 11 µM unless noted; 5,700 compounds, 1% hits;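 active = mean of two plates above 50% at 24 h or at 48 h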;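 note: HPV-positive HeLa cells with a fluorescent p53 stability reporter; 0% = vehicle and 100% = proteasome inhibitor control; doses worked out from stocks diluted about 900-fold with the highest of each compound shown; many of its hits are not listed in these tables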
p53 nuclei cells 24 h – recorded beside p53 nuclei, whose call it bears; nuclei count, normalised, %; measured here: cell number at 24 h;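 100% = vehicle wells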
p53 nuclei p53 24 h – second read-out of p53 nuclei, no call of its own (marks repeat the call); p53-positive nuclei, normalised, %; measured here: p53 positive nuclei at 24 h;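 0% = vehicle and 100% = positive control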
p53 nuclei cells 48 h – second read-out of p53 nuclei, no call of its own (marks repeat the call); nuclei count, normalised, %; measured here: cell number at 48 h;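 100% = vehicle wells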
Active calls of the source: *; [ ] = another dose, or the depositor's remark. Only part of the results is shown; count on the stated rates, not on these rows.

Abbreviations – A = p53 nuclei; B = p53 nuclei cells 24 h; C = p53 nuclei p53 24 h; D = p53 nuclei cells 48 h
CC(C)NCC(O)c1ccccc1Cl (configuration not stated)
  A = -0.1[3.7 µM] | B = 112 | C = -0.2 | D = 108

NNC(=O)c1ccc(N)cc1
  A = 0.1 | B = 117 | C = 0.1 | D = 111

NC(=O)c1ccc(N)nc1
  A = -0.1 | B = 103 | C = 0.0 | D = 108

CC1=C2CC3C(CC=C4CC(O)CCC43C)C2CC[C@]12OC1CC(C)CNC1C2C (some centres not stated)
  A = 0.3 | B = 104 | C = 0.3 | D = 102

Cc1cc(O)ccc1Cl
  A = -0.2[3.7 µM] | B = 110 | C = -0.2 | D = 100

Cc1sc2c(c1C)C(c1ccc(Cl)cc1)=NC(CC(=O)Nc1ccc(O)cc1)c1nnc(C)n1-2 (configuration not stated)
  A = 9.7 | B = 114 | C = 47 | D = 109

O=C1CCC[C@@H]2[C@@H]3CCCN4CCC[C@H](CN12)[C@@H]34
  A = -0.2[3.7 µM] | B = 107 | C = -0.3 | D = 102

Oc1cc(Cl)ccc1Oc1ccc(Cl)cc1Cl
  A = 0.5 | B = 103 | C = 0.8 | D = 103

CCc1c(C(=O)C(N)=O)c2c(OCC(=O)O)cccc2n1Cc1ccccc1
  A = -0.1 | B = 99 | C = -0.2 | D = 106

c1ccc2c(c1)Nc1ccccc1S2
  A = 0.1[3.7 µM] | B = 118 | C = -0.3 | D = 102

Further compounds follow:
Abbreviations – A = p53 nuclei; B = p53 nuclei cells 24 h; C = p53 nuclei p53 24 h; D = p53 nuclei cells 48 h
NC(CC(=O)N1CCn2c(nnc2C(F)(F)F)C1)Cc1cc(F)c(F)cc1F (configuration not stated)
  A = -0.2 | B = 114 | C = -0.1 | D = 100

CCn1cnc2c(Nc3cccc(Cl)c3)nc(NC3CCCCC3N)nc21 (configuration not stated)
  A = 62* | B = 32* | C = 48* | D = 22*

Clc1ccc(C(Cn2ccnc2)OCc2c(Cl)cccc2Cl)c(Cl)c1 (configuration not stated)
  A = 0.0[3.7 µM] | B = 86 | C = -0.1 | D = 89

C[C@]12C=CC(=O)C=C1CC[C@@H]1[C@@H]2CC[C@]2(C)OC(=O)CC[C@@H]12
  A = 0.0 | B = 90 | C = 0.0 | D = 97

O=C(O)CCCc1ccc(N(CCCl)CCCl)cc1
  A = -0.1[3.7 µM] | B = 91 | C = -0.3 | D = 95

CCS(=O)c1c(C#N)nn(-c2c(Cl)cc(C(F)(F)F)cc2Cl)c1N (configuration not stated)
  A = -0.2 | B = 107 | C = 0.0 | D = 103

COc1cc(OC)c(OC)cc1C=O
  A = -0.2[3.7 µM] | B = 99 | C = -0.3 | D = 100

CNCC(=O)c1ccc(O)c(O)c1
  A = 0.0[3.7 µM] | B = 107 | C = -0.2 | D = 102

COc1ccc(N(C(=O)Oc2c(C)cccc2C)c2ccnc(Nc3ccc(N4CCN(C)CC4)cc3)n2)c(OC)c1
  A = 0.3 | B = 64 | C = 0.0 | D = 52

CN1C(=O)[C@@]23C[C@]4([C@]56C[C@@]78SS[C@@](CO)(C(=O)N7[C@@H]5Nc5ccccc56)N(C)C8=O)c5ccccc5N[C@H]4N2C(=O)[C@]1(CO)SS3
  A = 8.0 | B = 42 | C = 13 | D = 27

Carrying on:
Abbreviations – A = p53 nuclei; B = p53 nuclei cells 24 h; C = p53 nuclei p53 24 h; D = p53 nuclei cells 48 h
C[N@@+]1(CC2CC2)CC[C@]23c4c5ccc(O)c4OC2C(=O)CC[C@@]3(O)C1C5 (some centres not stated)
  A = 0.0 | B = 78 | C = -0.1 | D = 79

O=C(NC(COc1ccc2[nH]c(=O)[nH]c2c1)c1ccccc1)c1cccn(Cc2ccc(F)c(F)c2)c1=O (configuration not stated)
  A = 0.0 | B = 103 | C = -0.1 | D = 99

CCC(COC(=O)c1cc(OC)c(OC)c(OC)c1)(c1ccccc1)N(C)C (configuration not stated)
  A = -0.2[3.7 µM] | B = 114 | C = -0.5 | D = 111

O=S(=O)(F)Cc1ccccc1
  A = 2.9[3.7 µM] | B = 110 | C = 2.6 | D = 103

COc1ccc(C(CN(C)C)C2(O)CCCCC2)cc1 (configuration not stated)
  A = -0.1 | B = 117 | C = -0.2 | D = 111

COC1CCC(OC2C[C@H]([C@]3(C)CC[C@]4(CC(O)C(C)[C@@H](C(C)C=C(C)C(=O)C(C)CC(C)C(=O)O)O4)O3)O[C@]3(O[C@@H]([C@H]4O[C@@](O)(CO)C(C)CC4C)CC3C)C2C)OC1C (some centres not stated)
  A = 0.0[3.7 µM] | B = 73 | C = -0.2 | D = 61

O=C(Oc1ccc([N+](=O)[O-])cc1)N1CCC(C(O)(c2ccc3c(c2)OCO3)c2ccc3c(c2)OCO3)CC1
  A = -0.1 | B = 106 | C = 0.0 | D = 108

O=C(O)C(=O)c1cn(Cc2ccccc2)c2ccc(-c3ccc(OC(F)(F)F)cc3)cc12
  A = -0.1 | B = 103 | C = -0.2 | D = 104

CCCCCCC1C(=O)OC(C)C(NC(=O)c2cccc(NC=O)c2O)C(=O)OC(C)C1OC(=O)CC(C)C (configuration not stated)
  A = 0.1 | B = 74 | C = 0.0 | D = 65

CN(C)Cc1c[nH]c2ccccc12
  A = -0.1[3.7 µM] | B = 119 | C = -0.5 | D = 113

Complete entries from above. Order of values: p53 nuclei, p53 nuclei cells 24 h, p53 nuclei p53 24 h, p53 nuclei cells 48 h
C[C@]12C=CC(=O)C=C1CC[C@@H]1[C@@H]2CC[C@]2(C)OC(=O)CC[C@@H]12 is listed as 0.0, 90, 0.0, 97
NC(=O)c1ccc(N)nc1 is listed as -0.1, 103, 0.0, 108
CCc1c(C(=O)C(N)=O)c2c(OCC(=O)O)cccc2n1Cc1ccccc1 is listed as -0.1, 99, -0.2, 106
c1ccc2c(c1)Nc1ccccc1S2 is listed as 0.1[3.7 µM], 118, -0.3, 102

The results go on:
Abbreviations – A = p53 nuclei; B = p53 nuclei cells 24 h; C = p53 nuclei p53 24 h; D = p53 nuclei cells 48 h
Cc1cccc(C)c1NC(=O)CN1CCCC1=O
  A = 0.0[3.7 µM] | B = 108 | C = -0.2 | D = 107

Cc1nc(-c2ccc(-c3ccc(C(=O)N4CCc5cc6c(cc54)C4(CCN(C)CC4)CO6)cc3)c(C)c2)no1
  A = 0.1 | B = 86 | C = 0.0 | D = 87

Clc1ccc(C(Cn2ccnc2)OCc2ccc(Sc3ccccc3)cc2)c(Cl)c1 (configuration not stated)
  A = 0.1[3.7 µM] | B = 111 | C = 0.0 | D = 107

CC1=CC(=O)c2c(O)cccc2C1=O
  A = -0.2 | B = 49 | C = -0.1 | D = 33

Pulled by compound from above:
Abbreviations – A = p53 nuclei; B = p53 nuclei cells 24 h; C = p53 nuclei p53 24 h; D = p53 nuclei cells 48 h
CC1=CC(=O)c2c(O)cccc2C1=O
  A = -0.2 | B = 49 | C = -0.1 | D = 33

Cc1nc(-c2ccc(-c3ccc(C(=O)N4CCc5cc6c(cc54)C4(CCN(C)CC4)CO6)cc3)c(C)c2)no1
  A = 0.1 | B = 86 | C = 0.0 | D = 87

Screens (PubChem)
